# Screening data from PubChem BioAssay.
# POLH inh: qHTS for Inhibitors of Polymerase Eta. DNA polymerase eta (Homo sapiens), Q9Y253. Potency, µM (highest dose often 114 µM), inactives show at the top dose activity change, negative = inhibition, usual class: inhibitors. actives 1.2% (n = 390,000). AID 588591, 2011. recombinant Pol eta, fluorescent DNA replication assay; note: % is set by controls: 0 for no effect and ±100 for the full control effect
#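 Pol eta at 10 nM preincubated with compounds 15 min at room temperature; reaction started with fluorescent substrate (50 nM final) and read kinetically at 0 and 10 min.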
# BLM inh: qHTS Assay for Inhibitors of Bloom's syndrome helicase (BLM). AID 2528, 2010. recombinant BLM DNA unwinding, fluorescence dequenching. actives 0.2% (n = 350,000). Potency, µM (titrated, usually from 56.1 µM), inactives show at the top dose activity change, negative = inhibition, most hits filed as inhibitors;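 note: plate controls were vehicle for no effect and no enzyme for full effect; nearly all actives have a fitted effect of over 35% in size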
# APEX1 inh: qHTS Assay for Inhibitors of the Human Apurinic/apyrimidinic Endonuclease 1 (APE1). AID 2517, 2012. Potency, µM (series often up to 65.8 µM), for the others: at the top dose activity change, negative = inhibition, most hits filed as inhibitors. DNA repair nuclease/redox regulator APEX1 (Homo sapiens), P27695. actives 0.35% (n = 350,000). recombinant APE1, TAMRA/BHQ-2 abasic DNA cleavage fluorescence;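 note: plate controls were vehicle for no effect and reference inhibitor for full effect; nearly all actives have a fitted effect of over 55% in size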
#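 Incision of a quenched TAMRA/BHQ-2 THF abasic-site duplex (50 nM) by 0.75 nM APE1, after 15 min compound preincubation, measured as fluorescence increase over three 60 s reads. Values normalized to buffer, DMSO and NSC13755 control wells.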
# Anesthetic bind: qHTS Assay for Identification of Novel General Anesthetics. Ferritin light chain (Equus caballus), P02791. apoferritin/1-aminoanthracene competitive binding, fluorescence. Potency, µM (top dose mostly 77.5 µM), without a hit: at the highest dose activity change, negative = displacement, actives largely listed as inhibitors. actives 0.074% (n = 350,000); note: % is set by controls: 0 for no effect and ±100 for the full control effect; nearly all actives have a fitted effect of over 20% in size
# Target sequence (P02791 2-175 limits assumed): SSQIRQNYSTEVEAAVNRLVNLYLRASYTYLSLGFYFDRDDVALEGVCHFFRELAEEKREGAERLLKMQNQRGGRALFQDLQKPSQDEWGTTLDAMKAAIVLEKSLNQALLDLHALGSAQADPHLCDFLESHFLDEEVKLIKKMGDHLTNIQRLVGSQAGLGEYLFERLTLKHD
#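 Steps: apoferritin (10 uM) was premixed with half-saturated 1-AMA in PBS, compounds were pin-transferred, plates stood 10 min at room temperature, fluorescence was read at 380/535 nm, and curves were fitted with a Hill equation.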
# Pol iota inh: qHTS for Inhibitors of Polymerase Iota; Potency, µM (titrated, usually from 115 µM), without a hit: at the highest dose activity, negative = inhibition, usual class: inhibitors; Pol iota fluorescent replication assay, 10 min; actives 1% (n = 390,000)
#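 Fluorescent replication assay read twice, at 0 min and 10 min after adding 50 nM (final) substrate. Enzyme (10 nM) and compounds were first incubated 15 min at room temperature; enzyme-free buffer wells were negative controls.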
# POLK inh: qHTS for Inhibitors of Polymerase Kappa. DNA polymerase kappa (Homo sapiens), Q9UBT6. purified Pol kappa, fluorescent DNA synthesis assay, 10 min. Potency, µM (top dose mostly 107 µM), for inactives: top-dose activity, negative = inhibition, usual class: inhibitors. actives 0.53% (n = 400,000). AID 588579, 2011; note: % is set by controls: 0 for no effect and ±100 for the full control effect
# Target sequence (Q9UBT6 whole entry, looked up): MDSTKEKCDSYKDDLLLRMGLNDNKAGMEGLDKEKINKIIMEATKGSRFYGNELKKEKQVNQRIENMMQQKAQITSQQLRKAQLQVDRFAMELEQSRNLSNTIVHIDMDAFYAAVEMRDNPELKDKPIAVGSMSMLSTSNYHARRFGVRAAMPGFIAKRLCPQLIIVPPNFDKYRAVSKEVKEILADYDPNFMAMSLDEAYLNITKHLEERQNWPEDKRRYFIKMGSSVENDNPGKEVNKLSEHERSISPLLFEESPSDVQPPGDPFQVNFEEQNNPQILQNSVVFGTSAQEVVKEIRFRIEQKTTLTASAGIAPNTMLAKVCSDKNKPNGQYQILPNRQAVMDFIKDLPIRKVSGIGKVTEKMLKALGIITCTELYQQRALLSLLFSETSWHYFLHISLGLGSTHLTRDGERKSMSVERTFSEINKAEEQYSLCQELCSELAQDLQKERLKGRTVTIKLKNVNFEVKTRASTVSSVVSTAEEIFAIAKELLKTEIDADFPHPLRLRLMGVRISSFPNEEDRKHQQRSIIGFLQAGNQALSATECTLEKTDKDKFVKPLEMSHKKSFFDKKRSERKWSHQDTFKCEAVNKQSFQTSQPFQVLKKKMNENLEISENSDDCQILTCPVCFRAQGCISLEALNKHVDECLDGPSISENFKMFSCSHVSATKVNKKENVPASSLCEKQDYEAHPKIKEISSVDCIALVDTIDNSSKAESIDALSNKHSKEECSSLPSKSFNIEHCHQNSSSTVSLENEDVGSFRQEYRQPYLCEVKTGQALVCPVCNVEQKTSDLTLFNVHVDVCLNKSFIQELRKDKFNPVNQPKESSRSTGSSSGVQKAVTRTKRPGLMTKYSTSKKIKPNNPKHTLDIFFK
#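 Here, compound and 10 nM enzyme are combined for 15 min at room temperature; adding 50 nM substrate (final) starts DNA synthesis, tracked by fluorescence at 0 and 10 min against buffer-only wells.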
# Pol beta inh: qHTS Assay for Inhibitors of DNA Polymerase Beta; P06746; Pol beta primer extension/strand displacement, fluorescence kinetic; Potency, µM (top dose mostly 114 µM), for the others: top-dose activity change, negative = inhibition, actives largely listed as inhibitors; actives 1.3% (n = 340,000); AID 485314, 2010; note: % is set by controls: 0 for no effect and ±100 for the full control effect
#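 10 nM enzyme + cpd, 15 min RT; start with substrate 50 nM final; read 0 min and after 10 min RT. Corrected, normalized data; 4-parameter Hill curve fit.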
# G9a inh: qHTS Assay for Inhibitors of Histone Lysine Methyltransferase G9a; Potency, µM (titrated, usually from 102 µM), for the others: at the top dose activity, negative = inhibition, hits mostly inhibitors; G9a H3K9 monomethylation, AlphaScreen, 2 h; Histone-lysine N-methyltransferase EHMT2 (Homo sapiens), Q96KQ7; actives 8.8% (n = 350,000); note: % is set by controls: 0 for no effect and ±100 for the full control effect; nearly all actives have a fitted effect of over 75% in size
#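 Step 1: enzyme (final 20 nM) with compound, 15 min RT. Step 2: substrate peptide 500 nM and SAM 20 uM, 2 h RT. Step 3: anti-H3K9me1 antibody and AlphaScreen beads, 10 min, then plate read.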
# * = called active by the depositor; ? = inconclusive; . = no result given; & = joins results of further samples; [ ] = another dose, or the depositor's remark. Calls come from the whole dose curve; as a rule, active = well fitted curve in the direction sought with a large enough effect; inconclusive = small, poorly fitted or top-dose-only effect, or another doubt; inactive = no such curve, though single readings can be large; an effect the other way counts as inactive or inconclusive. Potency is the fitted concentration of half-maximal effect. Not all compounds are listed; the hit share may differ from the screen's.
SMILES	POLH inh	BLM inh	APEX1 inh	Anesthetic bind	Pol iota inh	POLK inh	Pol beta inh	G9a inh
Fc1ccc(CN2CCCCCCC2)cc1	-9%	-1%	-3%	-7%	8%	0%	12%	10µM*
Cc1ccccc1C(=O)N1CCc2cc(-c3csc(NC(=O)CN4CCCC4)n3)ccc21	-10%	0%	-9%	1%	8%	-14%	29%	-12%
COc1ccc(Nc2ccc(N3C(=O)CCCC3=O)cc2[N+](=O)[O-])c(OC)c1	-7%	2%	12%	4%	21%	-10%	40%	?
C=CCc1cc(Cl)ccc1OCCN(C)C	-6%	2%	-2%	-7%	7%	-14%	10%	20%[0.501 µM]
COc1ccc(C(=O)c2sc(Nc3ccccc3)c(C(=O)Nc3ccc(OC)c(OC)c3)c2N)cc1	-10%	-11%	?	-23%	18%	-9%	?	?
CCN(CC)C(=O)c1cc(Cl)ccn1	-18%	-6%	-7%	-5%	10%	0%	32%	11µM*
CCS(=O)(=O)N1CCc2cc(C(=O)Nc3cccc(NC(C)=O)c3)ccc21	2%	-4%	.	?	3%	-1%	-1%	?
COc1ccc(C(=O)NCC(c2cccs2)N2CCc3ccccc32)cc1OC (stereo unspecified)	-21%	.	-11%	.	50%[activator]	5%	.	40µM*
COc1ccc(OC)c(CNCc2ccc3c(c2)OCO3)c1	1%	2%	27%	3%	-1%	-6%	55%	35µM*
CN(C)CCCCOc1cccc(Br)c1	-17%	-15%	?	1%	-15%	9%	9%	3.5µM*
CCN1CCN(c2oc(-c3ccc(COc4ccc(OC)cc4)o3)nc2C#N)CC1	?	-5%	.	18%	2%	-11%	0%	14µM*
COCCn1c(=NC(=O)CSCC(=O)Nc2cc(C)on2)sc2cc(C(=O)OC)ccc21	5%	-5%	0%	-10%	-4%	-2%	-1%	-14%
COc1ccc([C@]23Cc4cc(OC)c(OC)cc4C(O2)c2c(cc(C)oc2=O)O3)cc1	.	-9%[12.4 µM]	-10%[12.4 µM]	-4%[15.3 µM]	.	.	-16%[22.9 µM]	-9%[2.33 µM]
O=c1[nH]n(CC2COC3(CCCCC3)O2)c(=O)c2ccccc12 (stereo unspecified)	-8%	-5%	1%	?	?	0%	16%	-5%
CCCCC1CCC(C(=O)Nc2ccc(N3CCOCC3)cc2N2CCOCC2)CC1 (stereo unspecified)	-24%	.	15%	.	35%[activator]	5%	.	15%[2.33 µM]
COc1ccc(OC)c(NC(=O)CSc2nnc(N)s2)c1	-1%	-2%	0%	7%	23%	-14%	-11%	-21%[12.7 µM]
CN(C)CCCCOc1ccccc1F	-9%	0%	3%	-1%	60%[activator]	2%	21%	8.9µM*
C=CCN=c1scc(-c2ccc(F)cc2)n1/N=C/c1ccccn1	-17%	-2%	-2%	-15%	-21%	-8%	-3%	22µM*
O=C(NC1CCCCCCC1)c1cnccn1	5%	-2%	11%	?	11%	-10%	54%	-4%[59 µM]
COc1ccc(Br)cc1CNC(=O)CN1CCSc2ccccc21	-15%	-5%	.	13%	-2%	-9%[60.1 µM]	4%	-42%[59 µM]
CC(=O)c1ccc(NS(=O)(=O)c2ccc(CC(C)C)cc2)cc1	-9%	-16%	2%	35µM*	?	-2%	-1%	21%
CN(C)c1nc(Nn2cnnc2)nc(N(C)C)n1	-16%	3%	4%	3%	29%	-2%	7%	-8%[12.7 µM]
Cc1ccc(S(=O)(=O)NC2(C(F)(F)F)C(=O)Nc3c2c(=O)[nH]c(=O)n3-c2ccccc2)cc1 (stereo unspecified)	-8%&-14%	-2%&4%	16%	14%&11%	14%&11%	7%&-4%	14%&20%	2%&-6%[59 µM]
Cc1ccc2[nH]c(=O)c(-c3noc(C(C)C)n3)cc2c1	-13%	2%	-2%	4%	25%	16%	36%	23%
CCN1C(=O)/C(=C/c2ccc(C)o2)N(C)C1=S	-7%	5%	4%	-12%	-30%	-7%	13%	8.9µM*
Cc1cc(=O)[nH]c(N/N=C/c2ccccn2)n1	-8%	4%	7%	9%	-7%	3%	14%	63%[activator][59 µM]
O=C(CN1CCCCCC1)NCC1CCCO1 (stereo unspecified)	-2%	-6%	-2%	-2%	-11%	-19%	-2%	.
COc1ccc(Nc2nc(CC(C)=O)ns2)cc1OC	0%	-3%	-2%	-18%	-1%	-8%	-15%	?
CCOC(=O)c1c(NC(=O)CSc2ncnc3[nH]ncc23)sc2c1CCC(C)C2 (stereo unspecified)	-12%	-7%	6%	-7%	5%	10%	-1%	-2%
COc1ccc2c(c1)NC(c1ccc(F)cc1)=NC(c1ccc(F)cc1)=N2	-1%	-5%	.	?	6%	-11%	-29%	?
CC1CC(C)CN(C(=O)/C=C/c2ccc([N+](=O)[O-])s2)C1 (stereo unspecified)	-10%	-9%	-7%	?	1%	-2%	-13%	?
COc1ccc(C(=O)CN2CCN(c3ncccn3)CC2)cc1	-3%	-1%	52%[activator]	5%	-4%	1%	39%	8.9µM*
Cc1ccc(S(=O)(=O)Nc2cnn(-c3ccccc3)c(=O)c2Cl)cc1	-19%	-27%	5%	49%[activator]	43%[activator]	-2%	-8%	.
O=[N+]([O-])c1cc(F)c(N2CCOCC2)cc1N1CCCCC1	-13%	-6%	-8%	?	23%	-2%	-1%	50µM*
CSc1nsc(/C=C/Nc2ccc(C)c(C)c2)c1C#N	-21%	-14%	-4%	-15%	76%[activator]	-17%	-21%	40µM*
O=C(CSc1ccc(-c2ccccn2)nn1)N1CCCCC1	-8%	-6%	2%	-4%	109%[activator]	0%	1%	4%
COc1ccc(CNc2ncc(-c3ccccc3)n2C)cc1	-5%	-7%	-7%	-8%	1%	-6%	53%	-2%[0.501 µM]
COc1cc(/C=N/N(C)C)ccc1OC(=O)c1ccco1	-20%	-9%	-7%	-5%	77%[activator]	-1%	-16%	28µM*
O=C(CSc1nccn1-c1ccc(Cl)cc1)Nc1ccc2c(c1)OCO2	-8%	5%	3%	?	-6%	-7%	-20%	?
Oc1ccc(C23CCCC2C2(CCCC2)c2ccc(O)cc2O3)c(O)c1 (stereo unspecified)	-12%	.	6%	.	-5%	-13%	.	?

# Complete entries as entered above.
# COc1cc(/C=N/N(C)C)ccc1OC(=O)c1ccco1 is entered as POLH inh = -20%; BLM inh = -9%; APEX1 inh = -7%; Anesthetic bind = -5%; Pol iota inh = 77%[activator]; POLK inh = -1%; Pol beta inh = -16%; G9a inh = 28µM*
# O=C(CSc1nccn1-c1ccc(Cl)cc1)Nc1ccc2c(c1)OCO2 is entered as POLH inh = -8%; BLM inh = 5%; APEX1 inh = 3%; Anesthetic bind = ?; Pol iota inh = -6%; POLK inh = -7%; Pol beta inh = -20%; G9a inh = ?

# (next part)
SMILES	POLH inh	BLM inh	APEX1 inh	Anesthetic bind	Pol iota inh	POLK inh	Pol beta inh	G9a inh
CCOC(=O)c1c(NC(=O)CSc2nnc(C)s2)sc2c1CCC(C)C2 (stereo unspecified)	-18%	-8%	11%	-23%	-2%	-15%	-28%	-22%[59 µM]
CC(C)(C)CC(C)(C)NCC(=O)Nc1c2c(nc3ccccc13)CCC2	-15%	2%	3%	-16%	-16%	-1%	0%	6.3µM*
O=C(Nc1ccon1)c1nc[nH]c1C(=O)NCc1ccccc1	-7%	.	-1%	.	34%[activator]	-8%	.	4%[0.501 µM]
CCc1ccc(OCC(=O)Nc2ncn[nH]2)cc1	-1%	0%	2%	-5%	38%[activator]	10%	2%	?
COc1cccc(C(=O)OCC(=O)Nc2nnc(-c3ccccc3)o2)c1	7%	.	5%	.	?	-6%	.	-19%
Cc1cccc(CN2CCN(Cc3ccco3)CC2)c1	-25%	-12%	36%	-10%	25%	0%	-10%	10µM*
FC(F)(F)c1ccc(CN2CCCCCC2)cc1	-8%	-3%	3%	-3%	4%	-6%[60.1 µM]	-20%	10µM*
Cc1ccc(/C=N/NC(=O)C(C)Oc2cccc3ccccc23)o1 (stereo unspecified)	-11%	-12%	-9%	?	?	-29%	8%	20µM*
N#C/C(=C\c1ccc(F)c(Br)c1)C(=O)NC1CC1	-10%	-13%	-29%	-6%	33%[activator]	5%	-99%	25%
Cc1ccc2c(c1)CCCN2CC(=O)Nc1cccc(S(=O)(=O)N2CCCC2)c1	-7%	.	-5%	.	11%	-11%	.	?
CCOc1ccc(NC(=S)Nc2cc(OC)c(Cl)cc2OC)cc1	-16%	-8%	3%	0%	13%	-4%	0%	?
COc1cccc(-c2sc3ccc(OC)cc3c2C#CCC(C)O)c1 (stereo unspecified)	-19%	.	3%	.	?	7%	.	-24%[2.33 µM]
CCCc1ccc2oc(C(=O)N(C)Cc3cnccn3)c(C)c2c1	-5%	-5%	11%	-8%	-25%	-20%	-22%	40µM*
O=C(CSc1nccn1-c1ccc(F)cc1)Nc1ccc2c(c1)OCO2	?	-10%	16%	-7%	-10%	-18%	-2%	17%[0.0925 µM]
CNc1nc(N)c(C(=O)Nc2cc(C)on2)s1	?	-4%	22%	-5%	116%[activator]	-6%	51%[activator]	-45%
COC(=O)C1C(=O)C2=C(CC1C)NC(C)=C(C(=O)OC1CCCC1)C2c1ccc(N(C)C)cc1 (stereo unspecified)	-12%	-9%	-2%	-11%	8%	-26%	-2%	?

# Ordered by molar mass (falling): some entries from above
SMILES	POLH inh	BLM inh	APEX1 inh	Anesthetic bind	Pol iota inh	POLK inh	Pol beta inh	G9a inh
Cc1ccc2c(c1)CCCN2CC(=O)Nc1cccc(S(=O)(=O)N2CCCC2)c1	-7%	.	-5%	.	11%	-11%	.	?
N#C/C(=C\c1ccc(F)c(Br)c1)C(=O)NC1CC1	-10%	-13%	-29%	-6%	33%[activator]	5%	-99%	25%
CNc1nc(N)c(C(=O)Nc2cc(C)on2)s1	?	-4%	22%	-5%	116%[activator]	-6%	51%[activator]	-45%

# Further results follow:
SMILES	POLH inh	BLM inh	APEX1 inh	Anesthetic bind	Pol iota inh	POLK inh	Pol beta inh	G9a inh
CCc1cccc(CC)c1NC(=S)NCc1ccc2[nH]c(C)cc2c1	-16%	-7%	-2%	2%	-13%	-4%	-3%	?
COc1ccc2c(c1)C=CC1(O2)N(CCO)c2ccccc2C1(C)C (stereo unspecified)	-28%	0%	-7%	?	?	-8%	-13%	?
CCOc1ccc(NC(=O)COC(=O)C2(C)CC2(Cl)Cl)c([N+](=O)[O-])c1 (stereo unspecified)	-6%	-15%	-4%	?	71%[activator]	0%	-24%	13µM*
CN(NS(C)(=O)=O)c1ncc(C(F)(F)F)cc1Cl	-7%	1%	1%	-2%	29%	2%	26%	2%
